Kir21 inh: inhibitors of mouse Kir2.1 inward-rectifier potassium channel. B-score at 10 µM. HEK293-Kir2.1, FluxOR thallium flux fluorescence; stronger effect = lower value. 310,000 tested, 0.85% active;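 active = fluorescence ratio B-score at or below minus 3 SD of library scores, with starting-brightness B-score within 2 SD, cut at about -4.2 in these data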;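 note: channel flux triggered by added potassium and thallium sulfate stimulus; B-score of peak minus minimum fluorescence over baseline after thallium stimulus; more negative B-score means stronger Kir2.1 block with less thallium influx; some compounds called inactive have numbers as strong as hits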
Target sequence (P35561 whole entry, looked up): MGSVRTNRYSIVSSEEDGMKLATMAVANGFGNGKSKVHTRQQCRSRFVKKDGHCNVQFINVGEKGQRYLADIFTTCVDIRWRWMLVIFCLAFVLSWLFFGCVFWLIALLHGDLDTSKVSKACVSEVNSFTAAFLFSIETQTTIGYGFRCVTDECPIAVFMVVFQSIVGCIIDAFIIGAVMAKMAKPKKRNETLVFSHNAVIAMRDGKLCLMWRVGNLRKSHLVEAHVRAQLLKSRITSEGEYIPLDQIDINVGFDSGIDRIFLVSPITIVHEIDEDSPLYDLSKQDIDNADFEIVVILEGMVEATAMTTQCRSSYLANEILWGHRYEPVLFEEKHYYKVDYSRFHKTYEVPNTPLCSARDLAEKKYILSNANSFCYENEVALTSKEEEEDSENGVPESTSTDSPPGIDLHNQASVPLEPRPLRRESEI
Starred values were filed as active, the others as inactive. This is a subset, and most or all hits are left out here.

Kir21 inh,Compound
-2.4,Nc1nonc1-n1nnc(C(=O)N/N=C/c2ccccc2)c1CSc1ccccc1
0.67,O=C(COC(=O)CCC(=O)c1ccc(Cl)cc1)NCC1CCCO1 (stereo not drawn)
-3.45,O=S(=O)(CC12C3C4C5C1C2C(Br)(C43)C51OCCO1)c1ccccc1 (stereo not drawn)
0.05,COc1ccc(CN2C3CCC2CC(NC(=O)c2cc(OC)c(OC)c(OC)c2)C3)cc1 (stereo not drawn)
0.52,CN(c1ccccc1N(C)S(=O)(=O)c1ccccc1)S(=O)(=O)c1ccccc1
0.38,CC(=O)Nc1ccc(C2Nc3cc(C)c(C)cc3NC3=C2C(=O)CC(C)(C)C3)cc1 (stereo not drawn)
1.36,O=C(Cn1cc([N+](=O)[O-])cn1)Nc1cccnc1
0.11,CCCCN(C)CCCNC(=O)c1cn(CC)c2ccc(S(=O)(=O)N3CCOCC3)cc2c1=O
0.38,CNc1nc2[nH]c(=O)c3c(c2s1)OC(N)=C(C#N)C3c1cccc(F)c1 (stereo not drawn)
0.17,COC(=O)C1(C)NC(c2ccc(Cl)cc2)C2C(=O)N(c3ccccc3)C(=O)C21 (stereo not drawn)
-0.08,O=C(CSc1nccn(-c2ccc(F)c(Cl)c2)c1=O)NC1CCCC1
1.96,O=C(O)c1cccc(NC(=O)c2ccc(CN3C(=O)c4ccccc4C3=O)cc2)c1
1.25,CCOC(=O)C1=C(Cn2ccc(C(F)(F)F)n2)NC(=O)NC1c1ccc2c(c1)OCO2 (stereo not drawn)
-2.05,Cn1c(=O)c2c(nc(CN3CCc4ccccc4C3)n2CCCO)n(C)c1=O
-0.01,Nc1cccc2c(O)cccc12
1.53,CCCn1ccc(O)c(Cc2ccc(Cl)cc2)c1=O
-2.23,CCOC(=O)c1cc(CO)cc(C(=O)OCC)c1
-2.03,CC(Nc1cccc(F)c1)C(=O)Nc1ccc(S(N)(=O)=O)cc1 (stereo not drawn)
-0.54,O=C(C1CCC1)N1CCc2cc(S(=O)(=O)NC3CCCc4ccccc43)ccc21 (stereo not drawn)
2.34,Cc1cc(CNC(=O)CC2C(=O)NCCN2Cc2ccc(-c3ccccc3)cc2)nn1C (stereo not drawn)
-0.08,Cc1ccc(NC(=O)CSc2nc3[nH]ncc3c(=O)[nH]2)c(C)c1
0.01,CC(C)C(C(=O)C=[N+]=[N-])N1C(=O)c2ccccc2C1=O (stereo not drawn)
-0.69,CC(=O)c1ccc(N(C)C)c2c(N(C)C)cccc12
0.56,O=C(Nc1sc2c(c1C(=O)O)CCC2)c1cccc(Cl)c1
-2.53,COc1ccc(CCNC(=O)CCCN2C(=O)C(c3ccccc3)Oc3cccnc32)cc1OC (stereo not drawn)
-0.48,COC(=O)CSc1nccc(C)n1
0.41,C=CCn1c(SCc2ccc(F)cc2)nnc1-c1sc2nc(C)cc(C)c2c1N
1.91,Cc1nc(SC2C=CS(=O)(=O)C2)n[nH]1 (stereo not drawn)
-0.81,CCC(C)[C@H](NC(=O)N1CCC(C)CC1)C(=O)OC (stereo partly drawn)
0.29,CC(CCc1ccccc1)NC(=O)CSc1cccc[n+]1[O-] (stereo not drawn)
-0.77,O=C(NCc1ccc2c(c1)OCO2)c1sccc1Br
0.26,O=C(O)c1ccn(COc2ccc(Br)cc2)n1
0,Cc1ccc(CNC(=O)C(=O)NCC2OCCN2S(=O)(=O)c2cccs2)cc1 (stereo not drawn)
-0.6,CN(C(=O)CSc1nnc(-c2cccs2)o1)C1CCS(=O)(=O)C1 (stereo not drawn)
-0.13,Cc1ccc(NC(=O)CN(C)C(=O)Cc2ccccc2F)cc1
-1.54,CC(C)c1ccc(CNc2ccc3c(c2)ncn3C)cc1
0.89,CCOC(=O)N1CCN(Cc2cn3ccccc3n2)CC1
0.24,O=C(c1ccccc1)C(Sc1ncn[nH]1)c1ccccc1 (stereo not drawn)
0.94,COc1ccccc1C(=O)NC1CC2CCC(C1)N2Cc1ccccc1 (stereo not drawn)
1.58,CSc1nc(N2CCN(c3ccccc3)CC2)cc(N2CCN(c3ccccc3)CC2)n1
-0.98,O=C(CC1C(=O)NCCN1Cc1ccc(Cl)c(F)c1)NC1CCC1 (stereo not drawn)
-1.01,CCOC(=O)Cn1ccc(NC(=O)c2ccc3c(c2)OCO3)n1
1.95,O=C(Cc1ccccc1)NNC1CC(=O)N(c2ccc(Oc3ccccc3)cc2)C1=O (stereo not drawn)
-1.08,CCCCC(=O)Nc1ccc(C(=O)NNC(=O)CCc2ccccc2)cc1
-1.15,O=C(CNC(=O)c1[nH]cnc1C(=O)NC(c1ccccc1)c1ccccc1)OCc1ccccc1
0.69,COC(=O)CSc1nc(-c2ccccc2)nc2ccc(F)cc12
1.08,CCOc1ccc(Cn2nnc(C(=O)Nc3cc(C)cc(C)c3)c2N)cc1
-0.32,O=C(CC1S/C(=N\S(=O)(=O)c2ccccc2)N(c2ccccc2)C1=O)Nc1ccc(F)cc1 (stereo not drawn)
-0.68,CSc1ccccc1NC(=O)CN(c1cc(C)cc(C)c1)S(C)(=O)=O
0,CCOC(=O)CNC(c1ccccc1)c1cc(Br)ccc1NC(=O)OCC (stereo not drawn)
-0.23,Cc1ccc(-c2nc(CS(=O)CC(=O)NCc3ccc(F)cc3)c(C)o2)cc1 (stereo not drawn)
0.78,N#C/C=C\Oc1ccc(Cl)cc1N
0.46,Cc1ccsc1/C=N/Nc1ncnc2nc[nH]c12
0.42,O=C(Oc1coc(CSc2ncccn2)cc1=O)c1cccc([N+](=O)[O-])c1
0.98,Cc1ccc(-n2nc3ccc(N)cc3n2)cc1
1.39,COc1ccccc1C(=O)N/C(=C\c1cn(S(=O)(=O)N(C)C)c2ccccc12)C(=O)N1CCCCC1

Additional records
Kir21 inh,Compound
0.37,CCc1nc(SCC(=O)Nc2ccccc2C(=O)OC)n[nH]1
-0.3,COCCOC(=O)c1c(NC(=O)CN(C)c2ccccc2)sc(C(N)=O)c1C
-1,Cc1cc(C)c(NC(=O)OCCN2CCOCC2)c(C)c1
0.19,O=C(Nc1ccccc1)Nc1cccn(Cc2c(F)cccc2Cl)c1=O
-0.88,Cc1cccc(C(=O)Nc2ccnc(-c3cccnc3)n2)c1
1.45,Cc1ccc(CN2CCN(CC(C)C)C(CCO)C2)s1 (stereo not drawn)
-1.58,COC(=O)c1ccccc1NC(=O)COC(=O)CSc1nnc(N)s1
-0.03,COc1ccccc1N1CCN(S(=O)(=O)c2cc3c(cc2C)NC(=O)CO3)CC1
1.36,COC(=O)[C@H](C)NC(=O)Nc1ccccc1F
0.69,Nc1ccccc1SCC(=O)Nc1ccc(N2CCOCC2)cc1
0.19,CCOC(=O)c1c(NC(=O)CN2CCOCC2)sc2c1CCCC2=O
0.03,CCOC(=O)Cc1csc(NC(=O)CSc2nnc(C)n2C)n1
-0.03,O=C(Nc1ccc(C#Cc2ccccc2)cc1)C1CC1
-0.51,CCOc1ccc(C(=O)Nc2ncccc2Cl)cc1
0,COc1ccccc1OCC(=O)NCC1CCCN(C(=O)c2ccccc2SC)C1 (stereo not drawn)
1.13,CCOC(=O)c1ccc(N=C2SC(C(=O)NC)CC(=O)N2CCc2ccccc2)cc1 (stereo not drawn)
1.37,COc1ccc(S(=O)(=O)Nc2cc(SCC(=O)O)c(O)c3ccccc23)cc1
-0.76,COc1cc(-c2nc(-c3ccc4c(c3)-c3ccccc3S4(=O)=O)c(-c3ccccc3)[nH]2)cc(OC)c1OC
0.53,CCc1ccc2oc(=O)cc(CN3CCOCC3)c2c1
0.06,O=C1CCC(C(=O)Nc2cccc(Br)c2)N1 (stereo not drawn)
0.14,CCOc1ccc(OCc2ccc(C(=O)O)o2)cc1
0.14,COc1ccc(CCC(=O)NCc2cn3ccccc3n2)cc1
0.02,CC(=O)Nc1ccc(NC(=O)COC(=O)c2c3c(nc4ccccc24)CCN(Cc2ccccc2)C3)cc1
0.01,O=C(COc1ccccc1)Nc1ccc(S(=O)(=O)Nc2ncccn2)cc1
-2.57,CCCC1CCC(c2ccc(/C(N)=N/O)cc2)CC1 (stereo not drawn)
-1.7,COc1ccc(S(=O)(=O)NC2(C(F)(F)F)N=C3SCCN3C2=O)cc1 (stereo not drawn)
-0.47,CCCS(=O)(=O)N1CCC(C(=O)NCCN2CCC(Cc3ccccc3)CC2)CC1
0.28,Cc1ccc(S(=O)(=O)Nc2ccc3c(c2)nc(CCN2CCOCC2)n3C)cc1
1.82,CC1(C)CNc2cc(N)ccc2S1
1.26,COc1ccccc1-n1c(SCC(N)=O)nc2sc3c(c2c1=O)CCC3
-1.55,CCOc1ccc(N2C(=O)CC(Sc3ncccn3)C2=O)cc1 (stereo not drawn)
-0.95,CNc1c([N+](=O)[O-])cnn1-c1cccc(Cl)n1
-0.01,O=C(NCc1ccco1)C1CCN(S(=O)(=O)Cc2ccccc2)CC1
0.23,COc1cc(NC(=O)c2c(F)c(F)c(OC)c(F)c2F)ccc1NC(=O)c1cccs1
0.39,Cc1cc2cc(CNS(=O)(=O)c3ccccc3)ccc2n1C
0.3,O=C1c2ccccc2C(Nc2ccccc2F)N1c1cccnc1 (stereo not drawn)
-0.95,CCCOc1ccc(OCCNC2CCCC2)cc1
-0.51,COCCCNC(=O)COc1cc2c(c3oc(=O)c(C)c(C)c13)CCC(C)(C)O2
-0.46,OCCNCCNCc1ccc(-c2ccccc2)cc1
-0.53,NC(=O)C1CCN(C(=O)c2ccc3c(=O)n(Cc4ccco4)c(SCC(=O)c4ccc(F)cc4)nc3c2)CC1
-0.21,COC(=O)CC(=O)CSc1nc(C)cc(C)c1C#N
0.35,O=c1c(O)c(-c2ccc(O)cc2)oc2cc(O)cc(O)c12
-0.03,Cc1ccc(N2C(=O)CCSC23C(=O)Nc2ccccc23)cc1 (stereo not drawn)
-0.16,COCCNC(=O)C(Cc1c[nH]c2ccccc12)NC(=O)OCc1ccccc1 (stereo not drawn)
-0.52,COc1ccc(/C=C/c2c(-c3cccc(C)c3)oc3ccc(N4CCOCC4)cc23)cc1
0.7,CCc1cc(CNC(=O)C2CCC(=O)N(CCc3ccc(OC)cc3)C2)on1 (stereo not drawn)
0.86,Cc1cccc(N2C(=O)C(O)=C(C(=O)c3cccs3)C2c2cccc(Oc3ccccc3)c2)n1 (stereo not drawn)
-0.46,O=C(/C=C/c1cc([N+](=O)[O-])ccc1OC(F)F)NCc1ccc(Cl)cc1

A draw from above in order of length of the SMILES, ascending.
Kir21 inh,Compound
-0.95,CCCOc1ccc(OCCNC2CCCC2)cc1
-0.46,OCCNCCNCc1ccc(-c2ccccc2)cc1
-0.21,COC(=O)CC(=O)CSc1nc(C)cc(C)c1C#N
0.3,O=C1c2ccccc2C(Nc2ccccc2F)N1c1cccnc1 (stereo not drawn)
0.39,Cc1cc2cc(CNS(=O)(=O)c3ccccc3)ccc2n1C
-1.55,CCOc1ccc(N2C(=O)CC(Sc3ncccn3)C2=O)cc1 (stereo not drawn)
-0.03,Cc1ccc(N2C(=O)CCSC23C(=O)Nc2ccccc23)cc1 (stereo not drawn)
-0.01,O=C(NCc1ccco1)C1CCN(S(=O)(=O)Cc2ccccc2)CC1
-0.16,COCCNC(=O)C(Cc1c[nH]c2ccccc12)NC(=O)OCc1ccccc1 (stereo not drawn)
-0.51,COCCCNC(=O)COc1cc2c(c3oc(=O)c(C)c(C)c13)CCC(C)(C)O2
-0.46,O=C(/C=C/c1cc([N+](=O)[O-])ccc1OC(F)F)NCc1ccc(Cl)cc1
0.23,COc1cc(NC(=O)c2c(F)c(F)c(OC)c(F)c2F)ccc1NC(=O)c1cccs1
-0.52,COc1ccc(/C=C/c2c(-c3cccc(C)c3)oc3ccc(N4CCOCC4)cc23)cc1
0.86,Cc1cccc(N2C(=O)C(O)=C(C(=O)c3cccs3)C2c2cccc(Oc3ccccc3)c2)n1 (stereo not drawn)
-0.53,NC(=O)C1CCN(C(=O)c2ccc3c(=O)n(Cc4ccco4)c(SCC(=O)c4ccc(F)cc4)nc3c2)CC1

More entries
Kir21 inh,Compound
1.15,CC1CN(C(=O)c2ccc3c(c2)OCO3)CC(C)O1 (stereo not drawn)
1.66,c1ccc(N2CCN(c3nc4ccccc4n4cnnc34)CC2)cc1
-2.91,Cc1c(Cl)cccc1NC(=S)N(CCCN1CCOCC1)Cc1cccs1
1.07,Cc1nnc(-c2cnn(C)c2N)n1Cc1cccc(Cl)c1
-0.12,COc1cc2c(cc1OC)C(C(=O)N(C)Cc1ccccc1)C(c1cccnc1)N(C)C2=O (stereo not drawn)
0.05,CC(=O)c1c(C)n(-c2ccc(C)cc2C)c2ccc(O)cc12
1.91,Cc1ccc(CSCCC(=O)NCCC2=CCCCC2)cc1
0.17,CC(C)CNC(=S)N(CCCN(C)C)Cc1cc2cc3c(cc2[nH]c1=O)OCCO3
0.5,O=C(c1ccc(-c2cccc(C(F)(F)F)c2)o1)N1CCOCC1
-0.93,O=C(NCc1cccs1)c1cc(-c2cccs2)on1
0.49,O=C(/C=C/c1ccccc1)C1=C(O)C(=O)N(CCO)C1c1ccc2c(c1)OCO2 (stereo not drawn)
1.57,CC(NCc1ccc(S(N)(=O)=O)cc1)C(=O)Nc1cc([N+](=O)[O-])ccc1Cl (stereo not drawn)
0.67,CCN(C(=O)COc1cccnc1[N+](=O)[O-])C1CCS(=O)(=O)C1 (stereo not drawn)
-0.81,CCc1ccccc1N(C(=O)c1cccs1)C1C=CS(=O)(=O)C1 (stereo not drawn)
0.48,Cc1ccc(NC(=O)COC(=O)CCc2nc3ccccc3n2-c2ccccc2)c(C)c1
0.86,O=C(CCN1CCN(CCO)CC1)Nc1ccc(OCc2ccccc2)cc1
0.37,CCC(=O)NC(=S)Nc1ccc(NC(=O)COc2ccccc2)cc1
1.26,Nc1nnc(SCC(=O)NC2CCCc3ccccc32)s1 (stereo not drawn)
